Assay outcomes (PubChem)
HPGD inh: HPGD (human) dehydrogenase inhibition. AID 894. 150,000 tested, 4.3% active. purified HPGD, NADH fluorescence kinetic, PGE2 substrate. P15428. Potency, µM, inactives show top-dose activity change, negative = inhibition, hits mostly inhibitors; active = well fitted inhibition curve with a large enough effect (not every such curve was filed as active); inconclusive = small, poorly fitted or top-dose-only effect, or another doubt; inactive = no such curve, though single readings can be large or run the other way;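 also: top concentration of the series not given in the record; plate controls included wells without enzyme; inactives centre near -10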
Target sequence (P15428 whole entry, looked up): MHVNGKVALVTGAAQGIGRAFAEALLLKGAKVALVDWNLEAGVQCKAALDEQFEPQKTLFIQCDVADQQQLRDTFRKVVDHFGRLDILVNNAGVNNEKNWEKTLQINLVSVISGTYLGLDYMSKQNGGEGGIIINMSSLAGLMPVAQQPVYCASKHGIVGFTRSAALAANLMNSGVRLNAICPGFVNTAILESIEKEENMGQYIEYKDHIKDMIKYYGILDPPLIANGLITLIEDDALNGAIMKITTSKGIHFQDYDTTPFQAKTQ
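NADH formation kinetics: reaction with 30 uM PGE2 and 1 mM NAD+ (final), 20 nM enzyme, Tris-HCl pH 8 with Tween 20, after 15 min compound preincubation at room temperature. Fluorescence change, last versus first of five reads.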
The depositor's hits bear a star; ? = inconclusive; ! = not confirmed by another sample. % is scaled to controls: 0 for no effect and ±100 for the full control effect; potency is read from the fitted curve at half-maximal effect.

compound	HPGD inh
COc1cccc(C2C(C#N)=C(N)Oc3c2oc(CO)cc3=O)c1 (configuration not stated)	-15.6%
O=C(CCCn1c(=S)[nH]c2cc3c(cc2c1=O)OCO3)N1CCN(C2CCCCC2)CC1	-9.3%
O=C(CC1c2ccccc2Oc2ccccc21)Nc1ccccc1F	-0.1%
COc1ccc(CCNC(=O)c2cc(-c3ccccc3)on2)cc1OC	-5.4%
CCCc1cc(=O)[nH]c(Nc2ccc(N3CCCCC3)cc2)n1	-2.2%
CCCCn1nnnc1SCC(=O)N1CCOCC1	-13.5%
Fc1ccc(-c2ccc(/C=N\n3cnnc3)o2)cc1Cl	?
O=C(c1ccc(-n2cccc2)cc1)N1CCN(Cc2ccccc2)CC1	-11.7%
CC(/C=N/NC(=O)c1n[nH]c2c1CCC2)=C\c1ccccc1	-12.9%
Cc1ccc(C(=O)NC(=S)Nc2cccc(NC(=O)c3ccccc3Cl)c2)cc1[N+](=O)[O-]	-13.1%
Cc1o[nH]c(=O)c1CC[C@H](N)C(=O)O	-7.4%
CCCCNC(=O)CSc1nnc(Cc2ccccc2)n1CC	-4.6%
CCOC(=O)c1cc2c(ccn2C)n1CC(=O)N1CCN(c2ccccc2OC)CC1	-7.3%
COc1cccc(C2CC(c3ccccc3OC)n3ncnc3N2)c1 (configuration not stated)	-15.0%
CC1(C)C(=O)C2(CCCC2)C(=O)OC1c1ccco1 (configuration not stated)	-12.0%
CCCn1cnc2c(c1=O)c1nc3ccccc3nc1n2Cc1ccccc1OC	?
CCOC(=O)N1CCC(NC(=O)CCc2cn(C)c3ccccc23)CC1	-10.9%
CC(C)NC(=S)NCc1cccnc1	-5.3%
S=C(Nc1cccnc1)NC1CCCCCCC1	-11.7%
CN(CC(=O)OCC(=O)NCc1ccccc1)S(=O)(=O)c1ccc(Cl)cc1	-6.5%
Cc1c(Cc2ccccc2)sc(NC(=O)/C=C/c2cccc3ccccc23)c1C(N)=O	-15.7%
COC(=O)COc1ccc(S(=O)(=O)NCCC2=CCCCC2)cc1	-1.1%
O=C(Nc1ccc(S(=O)(=O)N2CCCC2)cc1)c1ccc(CN2CCOCC2)cc1	-3.0%
CCC(Sc1nc2n[nH]c(C)c2c(=N)n1-c1cccc(Cl)c1)C(=O)NCCOC (configuration not stated)	-1.9%
CCSC1=C(C#N)C(c2cccs2)C(C(=O)OC)=C(C)N1 (configuration not stated)	-18.9%
COC(=O)C(Sc1nc(C)cc(C)c1C#N)c1ccccc1 (configuration not stated)	-6.1%
COc1ccc(-c2nnn(CC(=O)N(C3CCCC3)C(C)C(=O)NC3CCCC3)n2)cc1OC (configuration not stated)	-20.8%
O=C(NCc1cccnc1)c1cc(Sc2ccccc2Cl)nc2ccccc12	-7.4%
Cc1cc(C(=O)CSC(C)c2nc3ccccc3c(=O)[nH]2)c(C)n1C (configuration not stated)	-14.7%
CC(=O)c1ccc(-n2c(-c3cc(-c4ccco4)[nH]n3)n[nH]c2=S)cc1	5.62µM*
Cc1ccc(NC(=O)Nc2ccccc2)c(Br)c1	-4.5%
CSc1nccc(N2CCN(c3ccc(F)cc3)CC2)n1	-9.3%
O=C(CCCn1c(SCC(=O)NC2CCCCC2)nc2ccccc2c1=O)NCC1CCCO1 (configuration not stated)	?
CCOC(=O)N1CCN(c2ccc3nnnn3n2)CC1	1.8%
CCOc1ccc(CC2S/C(=N/c3ccccn3)NC2=O)cc1 (configuration not stated)	0.7%
CN(CC(=O)Nc1ccccc1N1CCOCC1)S(=O)(=O)c1ccc(F)cc1	-6.5%
O=C(c1n[nH]c(=O)c2ccccc12)N1CCN(c2ccccc2Cl)CC1	-12.6%
O=C(NCC1CCCO1)C1CCN(CC2CCCCC2)CC1 (configuration not stated)	2.2%
CNC1=C(Br)C(=O)c2ccncc2C1=O	-15.3%
CC(C)CC(=O)NC(=S)Nc1ccc(Cl)cn1	?
CCOC(=O)Cc1cc(=O)n2[nH]c(-c3ccc(Cl)cc3)cc2n1	-20.8%
Cc1cc(C)cc(N(CC(=O)NCC2CCCO2)C(=O)CCC(=O)Nc2cc(C)on2)c1 (configuration not stated)	-3.7%
Cc1ccc(NC(=O)c2cc(C)n(-c3cccc(C)c3)c2C)cc1	25.1µM*
CC(C)c1[nH]nc2c1C(C(C)C)C(C#N)=C(N)O2 (configuration not stated)	-0.4%
N#Cc1cccc(NC(=O)N2CCC3(CC2)CCN(C(=O)c2csnn2)CC3)c1	-1.3%
O=C(Nc1cn(-c2ccccc2)nc1-c1ccc(F)cc1)c1ccccc1	-20.1%
CC(C)CNC(=O)c1cccc(NC(=O)c2ccco2)c1	?
O=C(NC1CCCC1)c1cccc(NC(=O)c2ccco2)c1	?
COc1ccc(C(N)=O)cc1NC(=O)c1cccc(F)c1	-2.8%
[O-][n+]1onc2c1CCC1N(O)C(c3ccccc3)CC21O (configuration not stated)	-1.5%
CSc1cccc(NS(=O)(=O)c2cccc3nsnc23)c1	-14.3%
COC(=O)c1c(C)oc2ccc(NS(=O)(=O)c3cccs3)cc12	-18.6%
CC(OC(=O)c1cccs1)C(=O)Nc1nc(-c2ccccc2)cs1 (configuration not stated)	-24.1%
COc1ccc(CNC(=O)C2CCN(S(=O)(=O)N3CCC4(CC3)OCCO4)CC2)c(OC)c1	-6.6%
O=C(c1ccccc1)N1CCN(Cc2ccccc2Br)CC1	-1.5%
Cc1[nH]n(-c2ccccc2)c(=O)c1-c1ccccc1	-10.8%
CCOC(=O)c1c(NC(=O)CCl)sc(C(=O)N(CC)CC)c1C	-18.2%
CC(NC(=O)Nc1nnc(C(F)(F)F)s1)N1C(=O)C2C3C=CC(C3)C2C1=O (configuration not stated)	0.7%
CN1CCN(C(=O)/C=C/c2ccc3c(c2)OCO3)CC1	?
O=C(Cc1ccccc1)Nc1cccc(C(=O)N/N=C/c2ccco2)c1	-15.6%

Later entries:
compound	HPGD inh
COc1ccc(-c2noc(CN3CCN(c4ccccc4)CC3)n2)cc1	-10.6%
COc1cc(/C=C/C(=O)OCC(=O)Nc2cccc(Oc3ccccc3)c2)ccc1O	?
COc1ccc(NS(=O)(=O)c2cccc3cccnc23)cc1	-7.2%
Cc1sc2nc(C(C)Sc3nnc(C)n3-c3ccccc3)[nH]c(=O)c2c1C (configuration not stated)	-3.7%
Cc1ccc(-c2[nH]nc3c2C(C)C(C#N)=C(N)O3)cc1 (configuration not stated)	-10.9%
COc1cc2c(cc1OC)CN(C(=O)c1ccc(OC)c(S(=O)(=O)N3CCOCC3)c1)CC2	-24.4%
CN1C(=O)NC(c2ccccc2)(C(F)(F)F)S/C1=C(/C#N)c1nnc(N2CCOCC2)n1-c1ccccc1 (configuration not stated)	-0.5%
c1ccc(CCc2nc(-c3ccncc3)no2)cc1	-3.5%
CCn1c(=O)c2c(O)cc(=O)oc2c2ccccc21	-5.3%
CC12CC(NC(=O)N1c1ccc(C(=O)N3CCN(c4ccc(F)cc4)CC3)cc1)c1ccccc1O2 (configuration not stated)	-3.0%
Cc1cccc2cc(C#N)c(SCC(=O)N3CC(=O)Nc4ccccc43)nc12	-26.5%
COC(=O)[C@@]1(Cc2ccc(F)cc2)[C@@H]2[C@@H](CC(=O)[C@H]2CC(=O)C(=O)N2CCCC2)CN1C(=O)c1ccccc1	-28.8%
COc1ccc(-c2nnc(N)s2)cc1	-15.1%
Cc1nc2nc3c(cn2n1)C(=O)CC(C)(C)C3	-11.7%
COc1ccc(/C=N/N=C2\SC(CC(=O)O)C(=O)N2c2ccccc2)cc1 (configuration not stated)	-14.2%
Cc1ccc2c(c1)CCCN2C(=O)c1ccc2c(c1)OCO2	-14.2%
CC(C)(C)OC(=O)C(Cc1ccc(OC(C)(C)C)cc1)NC(=O)CNC(=O)CNC(=O)OCc1ccccc1 (configuration not stated)	0.2%
Cn1nnnc1SCC(=O)N1CCN(c2cccc(Cl)c2)CC1	0.9%
C=C(C)Cn1c(CCNC(=O)CCC)nc2ccccc21	-2.9%
COc1ccc(CN2CCN(C(=O)CN3C(=O)C4C5C=CC(C5)C4C3=O)CC2)c(OC)c1OC (configuration not stated)	5.2%
N[C@@H](Cc1cc(I)c(Oc2ccc(O)c(I)c2)c(I)c1)C(=O)O	28.2µM*!
CC(NC(N)=O)C(=O)OCc1ccc(Cl)cc1Cl (configuration not stated)	-9.1%
O=c1c(N2CCCCC2)coc2ccccc12	-11.9%
O=C(NCC1CCCO1)c1ccc(CS(=O)(=O)c2ccc(Cl)cc2)o1 (configuration not stated)	1.6%

3 entries already listed, sorted by the number in HPGD inh, ascending:
molecule	HPGD inh
COc1ccc(/C=N/N=C2\SC(CC(=O)O)C(=O)N2c2ccccc2)cc1 (configuration not stated)	-14.2%
O=c1c(N2CCCCC2)coc2ccccc12	-11.9%
Cc1nc2nc3c(cn2n1)C(=O)CC(C)(C)C3	-11.7%

Further records follow.
compound	HPGD inh
CCCCCCOc1ccc(/C=c2\s/c(=C(/C#N)C(=O)NCc3ccco3)n(-c3ccccc3)c2=O)cc1	-17.1%
CCOc1ccccc1C1CC(=O)Nc2cc3c(cc21)OCCO3 (configuration not stated)	-21.6%
COc1ccc(C)cc1NC(=S)N1CCN(S(C)(=O)=O)CC1	-1.0%
COC(=O)c1ccc(C2C(C(=O)OC(C)C)=C(C)N=C3SCCC(=O)N32)cc1 (configuration not stated)	-14.8%
CC(=O)c1cccc(NC(=O)CC2Oc3ccc(C)cc3NC2=O)c1 (configuration not stated)	1.5%
CC(C)CNC(=O)COC(=O)c1cc(S(=O)(=O)N2CCCCC2)ccc1N1CCOCC1	-15.2%
Cc1c(C(=O)N2CCOCC2)[nH]c2c1C(=O)CC(c1ccccc1Cl)C2 (configuration not stated)	-17.1%
COC(=O)c1[nH]c2ccc(C)cc2c1NC(=O)CN1CCc2cc(OC)c(OC)cc2C1	?
Fc1ccc(-c2nnc(CN3CCN(c4ncc(C(F)(F)F)cc4Cl)CC3)o2)cc1	-22.9%
Cc1nc2ccccc2n1CCc1nc2c3ccccc3nc(=S)n2[nH]1	-15.3%
CC(=O)c1ccc(CCCCCCCCCC(=O)O)s1	-16.9%
COc1ccc(C(=O)Nc2ccc(Cl)cn2)cc1Cl	-32.2%
CCOC(=O)C1=C(O)CSC1=Nc1cccc(Cl)c1	-7.7%
CC(=O)c1ccc(NC(=S)NC(=O)CC(C)C)cc1	-14.2%
COc1cc(/C=N\NC(=O)CNC(=O)C2COc3ccccc3O2)ccc1O (configuration not stated)	-18.1%
CC(=O)Nc1cccc(NC(=O)c2cc(-c3cccnc3)nc3ccc(Br)cc23)c1	-17.8%
Cc1cc(C(F)(F)F)c(C#N)c(Sc2ccccc2)n1	-24.9%
O=C(COc1ccccc1)N1CCc2ccccc21	-11.2%
O=C(N/N=C\c1cn[nH]c1-c1ccccc1)c1ccc([N+](=O)[O-])cc1	-14.3%
COc1cc(C(c2sc3nc(C)nn3c2O)N2CCOCC2)cc(OC)c1OC (configuration not stated)	-12.0%
COCCN(C(=O)CSc1nnc(Nc2ccccc2F)s1)c1c(N)n(Cc2ccccc2)c(=O)[nH]c1=O	-8.7%
CCOc1ccc(-c2nc3n(c(=O)c2C#N)CCCS3)cc1	?
CCOC(=O)c1csc(NC(=O)CSc2nnnn2-c2cccc(OC)c2)n1	-12.3%
CCOC(=O)N1CCN(c2ccc(C(C)=O)cc2F)CC1	-15.3%
CCc1ccc(C(=O)Nc2nnn(CC)n2)cc1	-7.5%
CCCCCOP(=O)(c1ccccc1)c1ccccc1	-4.3%
CCNC(=O)NC(=O)C(C)OC(=O)c1oc2ccc(OCC)cc2c1C (configuration not stated)	-24.0%
CCOC(=O)N1CCC(NC(=O)C(C)n2c3ccccc3c3cnn(C)c(=O)c32)CC1 (configuration not stated)	-20.8%
CCCCOc1cccc(C(=O)NC(=S)Nc2cccc(C(F)(F)F)c2)c1	-21.1%
CCOC(=O)c1c(NC(NC(C)=O)C(Cl)(Cl)Cl)sc2c1CCCC2 (configuration not stated)	-12.3%
CCc1ccc2[nH]c(=O)c(CN(Cc3ccc(F)cc3)C(c3nnnn3CCN3CCOCC3)C(C)C)cc2c1 (configuration not stated)	-23.4%
Cc1c(Cl)cccc1NC(=S)NCc1ccc2c(c1)OCO2	-5.5%
Cc1nn(Cc2nc(-c3cccs3)no2)c(C)c1Br	-4.5%
COc1cc(NS(=O)(=O)c2ccc(C)cc2)ccc1-n1cnnn1	-2.1%
Cc1cccc(NC(=O)CSc2n[nH]c(-c3ccncc3)n2)c1	-18.6%
CC(C)C(C(=O)OCC(=O)c1ccc2c(c1)NC(=O)CO2)N1C(=O)c2ccccc2C1=O (configuration not stated)	-11.9%
O=C(CNC(=O)c1ccc(Oc2ccccc2)cc1)OC1CCCCC1=O (configuration not stated)	-15.6%
CN(C)CCCOC(=O)CCc1ccccc1	0.4%
C=CCOc1ccc2ccccc2c1CNc1ncn[nH]1	-20.2%
CC(c1nnc(SCC(=O)NC(=O)NCc2ccco2)n1-c1ccc(Cl)cc1)N(C)C (configuration not stated)	-10.3%

An excerpt from above in order of number of heavy atoms, rising:
compound	HPGD inh
CN(C)CCCOC(=O)CCc1ccccc1	0.4%
C=CCOc1ccc2ccccc2c1CNc1ncn[nH]1	-20.2%
Cc1cccc(NC(=O)CSc2n[nH]c(-c3ccncc3)n2)c1	-18.6%

The list is partial (hit frequency here may not be typical).
